Screens from PubChem BioAssay.
2A firefly: Primary qHTS Assay for Foot and Mouth Disease Virus Antivirals against NCGC Sytravon and CBC Compound Libraries: Firefly Luciferase Signal | HEK cells with a luciferase reporter of 2A StopGo recoding | Potency, µM (top dose mostly 57.5 µM), for the others: at the highest dose signal change, negative = less light | 120,000 tested, 0.23% active | AID 1745856, 2022; active = well fitted falling curve with a large enough effect; inconclusive = small, poorly fitted or top-dose-only effect; inactive = no such curve, though single readings can be large or run the other way; further: nearly all actives have a fitted effect of over 60% in size; overnight with compound
StopGo RLuc: Primary qHTS Assay for Foot and Mouth Disease Virus Antivirals against NCGC Sytravon and CBC Compound Libraries: Renilla Luciferase Signal; 120,000 tested, 0.32% active; Potency, µM (top dose mostly 57.5 µM), for the others: at the top dose signal change, negative = less light; HEK cells with a luciferase reporter of 2A StopGo recoding; AID 1745857, 2022; active means well fitted falling curve with a large enough effect; inconclusive means small, poorly fitted or top-dose-only effect; inactive means no such curve, though single readings can be large or run the other way; further: nearly all actives have a fitted effect of over 55% in size; overnight with compound
Numbers without * were called inactive; & = joins results of further samples; [ ] = another dose, or the depositor's remark. On the % scale 0 is the no-effect control and ±100 the full control effect; potency means the concentration at half of the fitted maximal effect. Not all compounds are listed, so the mix of outcomes need not match the whole.

How did CCN(CC)C(CNC(=O)c1n[nH]c(=O)c2ccccc12)c1ccccc1 (stereo unspecified) do in these assays?
2A firefly: 0.0%; StopGo RLuc: -0.7%

Results for CC(C)c1ccc(NC(=O)CN2CCN(C(=O)c3cccs3)CC2)cc1 ?
2A firefly: 48.4%[activator]; StopGo RLuc: 22.5%

Results for Cc1cccc(CNC(=O)CS(=O)(=O)c2cccc3nsnc23)c1 ?
2A firefly: 8.0%; StopGo RLuc: 0.1%

What do the screens show for `Cc1cccc(NC(=O)CSc2nc3c(oc4ccccc43)c(=O)n2-c2ccc(F)cc2)c1`?
2A firefly: inconclusive; StopGo RLuc: -11.7%

How did COc1cccc(CN2C(=O)CN(C3CCCCC3)C(=O)C2c2ccc(OC(C)C)c(OC)c2)c1 (stereo unspecified) do in these assays?
2A firefly: 36.7%[activator]; StopGo RLuc: inconclusive

Results for O=C(CCc1ccccc1)NCC1CCCO1 (stereo unspecified) ?
2A firefly: 10.4%; StopGo RLuc: -4.8%

Results for CCn1c(SCC(=O)N2CCc3ccccc32)nnc1C(C)NC(=O)c1ccccc1F (stereo unspecified) ?
2A firefly: 11.4%; StopGo RLuc: 12.6%

What do the screens show for `CC(C)(C)N(Cc1cn(Cc2ccccc2)nn1)S(=O)(=O)c1ccccc1Br`?
2A firefly: 8.2%; StopGo RLuc: 143.2%[activator]

What do the screens show for `COc1ccc(SC(C)C(=O)NCc2ccnc(N3CCOCC3)c2)cc1` (stereo unspecified)?
2A firefly: 13.9%; StopGo RLuc: 1.7%

What do the screens show for `CCCCc1nn2c(=O)cc(COC(=O)Cc3ccccc3)nc2s1`?
2A firefly: -15.7%; StopGo RLuc: -14.8%

How did O=C(CC12CC3CC(CC(Br)(C3)C1)C2)OCc1cc([N+](=O)[O-])cc2c1OCOC2 do in these assays?
2A firefly: 35.8%[activator]; StopGo RLuc: -12.2%[1.06 µM]

Results for O=C(CN1CCN(c2cnn(-c3ccccc3)c(=O)c2Cl)CC1)Nc1ccc2c(c1)CCC2 ?
2A firefly: -9.8%; StopGo RLuc: -7.7%

What do the screens show for `CCOC(=O)NC(C)(C)Cc1ccc(Cl)cc1`?
2A firefly: -17.2%; StopGo RLuc: -14.2%

Results for N#CC1=C(N)n2ncnc2NC1c1ccc(Br)cc1 (stereo unspecified) ?
2A firefly: 5.6%; StopGo RLuc: -3.2%

Results for O=C(NCC(F)(F)F)C1CCN(C(=O)/C=C/c2ccccc2)CC1 ?
2A firefly: 0.0%; StopGo RLuc: 8.1%

The final 7 entries of the part above open the next one:
What do the screens show for `COc1ccc(SC(C)C(=O)NCc2ccnc(N3CCOCC3)c2)cc1` (stereo unspecified)?
2A firefly: 13.9%; StopGo RLuc: 1.7%

What do the screens show for `CCCCc1nn2c(=O)cc(COC(=O)Cc3ccccc3)nc2s1`?
2A firefly: -15.7%; StopGo RLuc: -14.8%

How did O=C(CC12CC3CC(CC(Br)(C3)C1)C2)OCc1cc([N+](=O)[O-])cc2c1OCOC2 do in these assays?
2A firefly: 35.8%[activator]; StopGo RLuc: -12.2%[1.06 µM]

Results for O=C(CN1CCN(c2cnn(-c3ccccc3)c(=O)c2Cl)CC1)Nc1ccc2c(c1)CCC2 ?
2A firefly: -9.8%; StopGo RLuc: -7.7%

What do the screens show for `CCOC(=O)NC(C)(C)Cc1ccc(Cl)cc1`?
2A firefly: -17.2%; StopGo RLuc: -14.2%

Results for N#CC1=C(N)n2ncnc2NC1c1ccc(Br)cc1 (stereo unspecified) ?
2A firefly: 5.6%; StopGo RLuc: -3.2%

Results for O=C(NCC(F)(F)F)C1CCN(C(=O)/C=C/c2ccccc2)CC1 ?
2A firefly: 0.0%; StopGo RLuc: 8.1%

Results for CSc1nn(Cc2ccc(F)cc2)c(N)c1S(=O)(=O)c1ccc(Cl)cc1 ?
2A firefly: inconclusive; StopGo RLuc: 76.9%[activator]

How did Cn1cnc2c1c(=O)n(CCCSCc1c(F)cccc1Cl)c(=O)n2C do in these assays?
2A firefly: 8.2%; StopGo RLuc: 8.2%

What do the screens show for `CCOC(=O)c1c(C)oc(NC(=O)c2cc(-c3ccc(OC)cc3)on2)c1C#N`?
2A firefly: 2.8%; StopGo RLuc: -7.6%

Results for O=C(c1ccc(F)cc1)n1nc(-c2ccccc2)nc1NCc1ccc(F)cc1 ?
2A firefly: 148.3%[activator]; StopGo RLuc: 1.3%

Results for CCC(C)(C)c1ccc(Oc2ccc(NC(=O)/C=C/c3ccc(Cl)cc3Cl)cc2)cc1 ?
2A firefly: 0.0%; StopGo RLuc: -6.9%[1.06 µM]

What do the screens show for `COc1ccc(C2=NS(=O)(=O)N(C)C(C(=O)NC(C)C)=C2)cc1OC`?
2A firefly: 0.9%; StopGo RLuc: -5.6%

Results for Cc1ccc(-n2nnc(C(=O)NC3CCCCCC3)c2C)cc1C ?
2A firefly: 182.1%[activator]; StopGo RLuc: 6.7%

Results for CCC(C)NC(=O)Cn1c(-c2ccc(F)cc2)nc(C)cc1=O (stereo unspecified) ?
2A firefly: 12.4%; StopGo RLuc: -0.6%

How did O=C(CSc1n[nH]c(-c2ccccc2Cl)n1)NCCCc1ccccc1 do in these assays?
2A firefly: 0.0%; StopGo RLuc: -17.6%

What do the screens show for `C#CCOC(=O)C[N+](C)(C)CC#Cc1ccccc1`?
2A firefly: -3.6%; StopGo RLuc: 1.2%

How did Cc1cc(OCC(=O)Nc2ccccc2N2CCN(S(C)(=O)=O)CC2)cc(C)c1Cl do in these assays?
2A firefly: 30.3%[activator]; StopGo RLuc: 13.8%

What do the screens show for `Cc1ccc(CN2CCN(c3nc4c([nH]3)c(=O)n(C)c(=O)n4C)CC2)cc1`?
2A firefly: 0.4%; StopGo RLuc: -7.5%

What do the screens show for `COc1ccccc1N(CC(=O)NCCSCc1ccccc1)S(=O)(=O)c1ccc(C)cc1`?
2A firefly: inconclusive; StopGo RLuc: -22.3%

What do the screens show for `COc1ccc2c(c1)c(CC(=O)O)c(C)n2C(=O)c1ccc(Cl)cc1`?
2A firefly: 8.8%; StopGo RLuc: -10.3%

What do the screens show for `CCc1ccccc1NC(=O)Cn1c(=O)n(-c2ccc(C)cc2)c(=O)c2c1c1cc(C)ccc1n2C`?
2A firefly: 1.3%; StopGo RLuc: -17.1%

Results for CC(C)CSc1nnc(-c2c[nH]c3ccccc23)n1C1CC1 ?
2A firefly: -17.2%; StopGo RLuc: inconclusive

What do the screens show for `O=C(Nc1ccc(F)cc1Cl)C1Cc2ccccc2N1C(=O)c1ccccc1` (stereo unspecified)?
2A firefly: -12.9%; StopGo RLuc: -17.8%

How did Cc1ccc(-c2noc(CN(C(=O)c3ccc(C(C)(C)C)cc3)C(C)C)n2)cc1 do in these assays?
2A firefly: 5.8%; StopGo RLuc: 1.7%

Results for Cc1c(Cl)ccc2sc(N3CCN(C(=O)C4CC4)CC3)nc12 ?
2A firefly: -16.0%; StopGo RLuc: inconclusive

Results for Cc1ccc(NC(=O)CCNS(=O)(=O)c2ccc3c(c2)CCN3C(=O)C2CC2)c(Cl)c1 ?
2A firefly: inconclusive; StopGo RLuc: 17.3%

How did Cc1sc(-n2cccc2)c(C(C)NC(=O)Nc2ccccc2Cl)c1C (stereo unspecified) do in these assays?
2A firefly: 0.0%; StopGo RLuc: 9.4%

How did Cc1cccc(C)c1-n1nnnc1Sc1nnnn1-c1ccccc1 do in these assays?
2A firefly: inconclusive; StopGo RLuc: inconclusive

How did Cc1ccc(C(=O)OC(C)C(=O)Nc2ccc3c(c2)OCO3)c(O)c1 (stereo unspecified) do in these assays?
2A firefly: 171.1%[activator]; StopGo RLuc: 8.9%

How did CC(=O)c1c(C)[nH]c(C(=O)C(C)OC(=O)c2cccc(F)c2)c1C (stereo unspecified) do in these assays?
2A firefly: 6.7%; StopGo RLuc: -13.0%[1.06 µM]

What do the screens show for `CCOc1ccc(N(CC(=O)NCc2ccc(C)cc2)S(=O)(=O)c2c(C)noc2C)cc1`?
2A firefly: -8.8%; StopGo RLuc: -4.5%

What do the screens show for `CC(C)C(=O)N1CCC(C(=O)NCC2(c3ccc(F)cc3)CC2)CC1`?
2A firefly: 6.0%; StopGo RLuc: 10.1%

What do the screens show for `CCn1c(C)c(CCC(=O)NCC2CCCO2)c(=O)n2nc(-c3ccccc3OC)cc12` (stereo unspecified)?
2A firefly: -2.9%; StopGo RLuc: -11.5%

How did Cc1ccc2[nH]cc(C(C(=O)O)N3CCN(c4ccccc4)CC3)c2c1 (stereo unspecified) do in these assays?
2A firefly: -8.1%; StopGo RLuc: -5.5%

What do the screens show for `O=C(Nc1c(NCc2ccccc2)c2ccccc2oc1=O)c1cccc(Cl)c1`?
2A firefly: 16.1%; StopGo RLuc: 11.6%

What do the screens show for `Cc1ccc(Nc2nc(CN3CCN(S(=O)(=O)c4ccccc4F)CC3)cs2)cc1`?
2A firefly: inconclusive; StopGo RLuc: inconclusive

What do the screens show for `CC(=O)c1ccc(NC(=O)c2nc3ccccc3nc2N2CCCCC2)cc1`?
2A firefly: -12.0%; StopGo RLuc: -8.9%

How did CCN(c1ccc(NC(=O)CCc2ccccc2)cc1)C(C)C do in these assays?
2A firefly: 233.3%[activator]; StopGo RLuc: 34.7%

Results for Cc1ccc(NC(=O)c2cc(S(=O)(=O)N3CCOCC3)c(Cl)cc2Cl)cc1 ?
2A firefly: inconclusive; StopGo RLuc: inconclusive

How did CC(C(=O)O)c1ccc(C(=O)c2ccccc2)s1 (stereo unspecified) do in these assays?
2A firefly: 70.4%[activator]; StopGo RLuc: 7.7%

What do the screens show for `O=C(CN1C(=O)COc2ccccc21)NCCc1ccc(Cl)cc1`?
2A firefly: -15.9%; StopGo RLuc: -5.7%

Results for C=C(C)CSc1nc(-c2ccccc2)cc(-c2ccc(OC)cc2)c1C#N ?
2A firefly: -13.8%; StopGo RLuc: 0.3%

Results for CN(C)CCNc1oc(COc2ccccc2)nc1C#N ?
2A firefly: 22.9%; StopGo RLuc: -16.8%

How did COc1ccc(N(C)S(=O)(=O)c2cccc(C(=O)Nc3ccc4oc(C)nc4c3)c2)cc1 do in these assays?
2A firefly: inconclusive; StopGo RLuc: inconclusive

What do the screens show for `CCOC(=O)c1cccc(NC(=O)CCc2c(C)nn(-c3ccc(N4CCOCC4)nn3)c2C)c1`?
2A firefly: 88.7%&138.3%[activator]; StopGo RLuc: 24.2%&-8.4%

Results for O=C(NCCc1cccc(F)c1)c1ccccn1 ?
2A firefly: 165.1%[activator]; StopGo RLuc: 14.9%

How did O=C(COC(=O)c1cc2c(s1)CCCCC2)NC(=O)NC1CCCC1 do in these assays?
2A firefly: 14.9%; StopGo RLuc: -1.2%

What do the screens show for `O=C(CS(=O)(=O)c1nc(-c2ccc(Cl)cc2)cn1-c1ccccc1)Nc1ccc(F)cc1F`?
2A firefly: 119.7%[activator]; StopGo RLuc: 31.0%[activator]

Results for COc1ccc(CCNC(=O)CCc2c(C)nn(C)c2C)cc1OC ?
2A firefly: 7.1%; StopGo RLuc: -17.4%

How did Cc1[nH]c2ccccc2c1CC(=O)NCc1ccccc1 do in these assays?
2A firefly: -1.9%; StopGo RLuc: -1.7%

Results for CC(C)(C)c1nc2cc(NC(=O)CNC(=O)c3ccco3)ccc2o1 ?
2A firefly: 73.4%[activator]; StopGo RLuc: 1.0%

How did Cc1nc2sc(C(=O)N(C)c3ccccc3)c(NC(=O)c3ccccc3Cl)c2c(C)c1C do in these assays?
2A firefly: -13.9%; StopGo RLuc: -9.5%

What do the screens show for `O=C(O)c1c2c(nc3ccc(S(=O)(=O)N4CCC(C(=O)NCc5ccc(Cl)cc5)CC4)cc13)CCCC2`?
2A firefly: 0.0%; StopGo RLuc: 7.1%

What do the screens show for `O=C(O)CC1(CC(=O)Nc2ccccc2NS(=O)(=O)c2ccc(F)cc2)CCCCC1`?
2A firefly: 1.0%; StopGo RLuc: 3.4%

How did Cn1nc(C(=O)N2CCN(c3ccccc3F)CC2)c2c1-c1ccccc1SC2 do in these assays?
2A firefly: -13.8%; StopGo RLuc: -4.3%

How did COC(=O)C1CN(Cc2ccc(Cl)cc2)CCS(=O)(=O)N1Cc1cn(Cc2ccc(C)cc2)nn1 (stereo unspecified) do in these assays?
2A firefly: -8.1%; StopGo RLuc: 1.4%

How did CCC(CC)C(=O)Nc1c(C)cccc1C do in these assays?
2A firefly: 8.3%; StopGo RLuc: 3.2%

What do the screens show for `O=S(=O)(c1ccccc1Cl)N1CCN(C/C=C/c2ccccc2)CC1`?
2A firefly: inconclusive; StopGo RLuc: inconclusive

What do the screens show for `O=S(=O)(c1ccc(N2CCN(Cc3cccc4ccccc34)CC2)nc1)N1CCCC1`?
2A firefly: -13.2%; StopGo RLuc: -8.7%

How did O=C(CCSc1ccc(F)cc1)NCc1cccc(Cl)c1 do in these assays?
2A firefly: 0.0%; StopGo RLuc: -5.9%[1.06 µM]

Results for CCCCC(=O)Nc1ccc(-c2nc(-c3ccccc3)co2)cc1 ?
2A firefly: 224.9%[activator]; StopGo RLuc: 20.6%

How did CCc1ccc2[nH]c(C)c(CN(CC)CC)c(=O)c2c1 do in these assays?
2A firefly: 6.7%; StopGo RLuc: -0.3%

How did CC(=O)Nc1cccc(C(=O)NCc2ccc3c(c2)CCN3C(C)=O)c1 do in these assays?
2A firefly: 4.7%; StopGo RLuc: 12.2%

Results for O=C(/C=C/c1ccc([N+](=O)[O-])cc1)c1ccc(-c2ccccc2)cc1 ?
2A firefly: 15.1%; StopGo RLuc: 3.7%

How did CN(C)CC/C=C1\c2ccccc2COc2ccccc21 do in these assays?
2A firefly: -11.9%; StopGo RLuc: -9.3%

Results for N#C/C(=C/c1ccc([N+](=O)[O-])cc1)c1ccc(C(F)(F)F)cn1 ?
2A firefly: 113.6%[activator]; StopGo RLuc: -9.7%
